# Source: PubChem BioAssay (several laboratories)
# BJeLR lethal – kills HRASV12-expressing BJeLR cells; BJeLR (HRASV12) viability, CellTiter-Glo ATP luminescence, 48 h; reference of the scale not given here; inhibition, % (test concentration not listed); hit rate 0.17% among 300,000;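 active = replicate mean above 50%; inconclusive = above 50% but judged a plate artefact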;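 note: 50 nL library stock added to about 25 µL; numbers are from one replicate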
# Sa RN4220 lethal – S. aureus RN4220 growth inhibition; OD600, 16 h; inhibition, % (concentration not given with the values); hit rate 0.33% among 330,000;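 active = z-score of -3 or lower and OD600 up to 0.18 on both plates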;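 note: plate controls were untreated cells for no effect and reference antibiotic for full effect; stock transfer was 100 nL into about 80 µL; one replicate is shown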
# Mtb hypoxia rep – reduces hypoxia-regulated biosensor signal in M. tuberculosis. AID 1159583. hit rate 0.1% among 300,000. fluorescence inhibition, % (no concentration beside the values). M. tuberculosis hypoxia-regulated fluorescent reporter, fluorescence;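 active = 35 to 45% if threefold the growth effect, above 45% if 1.5-fold the growth effect; inactive = the rest, general growth blockers included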;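 note: wells of about 50 µL received 100 nL stock; 0% = vehicle wells and 100% = reference inhibitor wells; whole bacteria with a GFP reporter of the hypoxia response; strong numbers were not always called active; many hits fall short of the cut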
# PrP 5UTR inh – suppresses PrP 5' UTR mRNA reporter expression; cell-based PrP 5' UTR mRNA reporter, plate reader; inhibition, % (no concentration beside the values); hit rate 0.35% among 340,000;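 active = every replicate at 50% or more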;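 note: 0 = median of the neutral control wells; tested in H4 reporter cells; numbers are from one replicate; inactives centre near -14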
# Sa ugtP lethal – kills S. aureus RN4220 lacking UgtP; S. aureus RN4220 ugtP deletion, OD600 growth, 16 h; some inactives read as strong as hits; growth inhibition, % (concentration not given with the values); hit rate 0.54% among 330,000;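 active = z-score under -3 and OD600 up to 0.15 on both plates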;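 note: plate controls were untreated wells for no effect and antibiotic for full effect; wells of about 80 µL received 100 nL stock; the first replicate is given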
# Autofluor counter – counter-screen for toxin protease inhibitors: compound fluorescence; compound autofluorescence counterscreen, microsphere flow cytometry; active compounds read high; fluorescence intensity (no concentration beside the values); hit rate 3.1% among 360,000;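 active = at least 3 SD above the mean of all compounds, about 16000 in these data; inconclusive = too few beads counted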;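 note: 100 nL of 1 mM stock went into each well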
# Mtb hypoxia rep growth – recorded beside Mtb hypoxia rep, whose call it bears; growth inhibition, %; measured here: M. tuberculosis growth (absorbance);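 0% = vehicle and 100% = reference antibiotic; read after six days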
# Numbers without * were called inactive; ? = inconclusive; nt = no result given.
# The line under a structure holds: BJeLR lethal	Sa RN4220 lethal	Mtb hypoxia rep	Mtb hypoxia rep growth	PrP 5UTR inh	Sa ugtP lethal	Autofluor counter
1. Cc1cc(N(C)N)nc(NC(=O)NS(=O)(=O)c2ccccc2Cl)n1
 : -1	nt	nt	nt	-11	nt	2920
2. CC(=O)c1sc(NC(=O)COc2ccc(C)c(C)c2)nc1C
 : -8	-1.5	2	-4	-23	-3	10310
3. Cc1ccc(COc2ccsc2-c2n[nH]c(=S)n2C)cc1
 : 0	4.2	14	9	-25	-5	22046*
4. Cc1ccccc1NS(=O)(=O)c1ccc(C(=O)NCC(c2ccco2)N(C)C)cc1 (stereo not given)
 : 9	nt	nt	nt	-20	nt	?
5. Cc1ccc(S(=O)(=O)N[C@H](C(=O)OCC(=O)NC(=O)Nc2ccc3c(c2)OCCO3)C(C)C)cc1
 : -16	1.9	6	2	-8	-4	1946
6. COc1cc2c(cc1OC)C(c1ccc3c(c1)OCO3)CC(=O)N2 (stereo not given)
 : -6	4.5	11	-1	-26	5	11224
7. Nn1cnnc1SCC(=O)Nc1ccc(C2CCCCC2)cc1
 : -6	4.0	5	3	-24	0	9411
8. Cc1cc2c(C)ccc(C)c2nc1SCC(=O)c1cccs1
 : -3	-2.8	0	0	-8	-6	4309
9. CCOc1cc(C2C(C#N)=C(N)Oc3n[nH]c(-c4ccccc4)c32)ccc1O (stereo not given)
 : -4	7.2	6	4	-13	3	3558
10. CCOc1ccc(N(CC(=O)N2CCCCCC2)S(=O)(=O)c2ccc(C)cc2)cc1
 : 7	nt	nt	nt	-5	nt	4229
11. CSCC[C@H](NC(=O)OCc1ccccc1)C(=O)O
 : 20	1.9	-5	-1	-6	-1	22450*
12. CSCCC1NC(=O)N(CC(=O)Nc2cc(C)on2)C1=O (stereo not given)
 : nt	2.7	7	-1	-10	1	4059
13. CCOc1ccc(C(=O)N/N=C/c2ccc(SC)cc2)cc1
 : 5	nt	nt	nt	-18	nt	2430
14. COCCn1nnnc1C(C(C)C)N1CCOCC1 (stereo not given)
 : 1	-0.1	-2	-5	-6	2	8853
15. COCCC(=O)N1CCC(Oc2ccc(C(=O)N(C)C(C)c3ccon3)cc2)CC1 (stereo not given)
 : 0	3.7	3	0	-2	6	5356
16. COCCCn1cnnc1SCc1nc2sc(C(C)=O)c(C)c2c(=O)[nH]1
 : 3	3.4	14	3	-19	8	6062
17. O=C(c1ccccc1Cl)N(C(=O)c1ccccc1Cl)c1nccc(-c2cccs2)n1
 : 2	-4.4	-20	3	8	-12	9665
18. C=C(Cl)CSC(=S)N(CC)CC
 : nt	6.7	5	-1	-23	15	5397
19. COc1ccc(C(=O)OC2CCN(C)CC2)cc1
 : 2	-0.5	nt	nt	-6	0	2875
20. Cn1cc(/C=C/C(=O)N2CCCC(C(=O)c3ccc(C(C)(C)C)cc3)C2)cn1 (stereo not given)
 : -4	6.4	3	4	-11	7	4203
21. O=C(CSc1nnc(-c2cccnc2)n1-c1ccc(SC(F)F)cc1)N1CCCc2ccccc21
 : nt	2.9	10	-4	4	3	2404
22. CC(C(=O)Nc1ccc(S(=O)(=O)N2CCOCC2)cc1)N(c1ccccc1)S(C)(=O)=O (stereo not given)
 : 1	-14	16	10	8	-1	2701
23. COc1ccc(C(CNS(=O)(=O)c2ccc(NC(C)=O)c(OC)c2)N2CCCC2)cc1 (stereo not given)
 : nt	3.0	6	10	-6	5	4084
24. Cc1ccc(S(=O)(=O)NCCC(=O)O)cc1
 : 2	nt	nt	nt	-11	nt	2659
25. O=C(O)c1nnn(-c2cccc(C(F)(F)F)c2)c1-c1ccccc1
 : -6	5.0	6	8	-20	2	3478
26. CCOc1ccc(C(C)=O)cc1N1C(=O)C2C3C=CC(C3)C2C1=O (stereo not given)
 : -1	-1.2	10	9	-5	0	10189
27. CCC(=O)Nc1ccc(C(=O)NN=Cc2cc(Br)c(OC)cc2OC)cc1
 : nt	4.1	5	8	nt	15	nt
28. CN(c1ccccc1C(=O)N1CCOCC1)S(C)(=O)=O
 : 3	-2.0	nt	nt	-15	-1	3659
29. CCN(C(=O)c1cnc(OC)cc1C(F)(F)F)c1ccc(Cl)cc1Cl
 : 6	4.1	4	10	-11	-7	6160
30. Cc1ccc(SCC(=O)NCCc2ccc(F)cc2)cc1
 : -3	3.6	2	-3	-7	2	3911
31. O=CN1CCN(C2CC(=O)N(c3ccc(Br)cc3)C2=O)CC1 (stereo not given)
 : -7	2.6	nt	nt	4	0	2748
32. COc1ccccc1OCC(=O)N/N=C1/SCC(=O)N1Cc1ccccc1
 : -7	nt	nt	nt	-24	nt	22284*
33. Cc1ccc(S(=O)(=O)Nc2ccc(C(=O)NCCCn3ccnc3)cc2)cc1[N+](=O)[O-]
 : nt	4.6	13	4	-11	4	3473
34. COC(=O)c1ccccc1Sc1c(/C=N/OC(=O)c2ccccc2)c(C(F)(F)F)nn1C
 : -7	nt	nt	nt	-19	nt	3305
35. O=C(O)Cc1ccc2[nH]c3ccc(CC(=O)O)cc3c2c1
 : 4	-9.2	21	4	-6	-7	3369
36. C=CCNc1nc(N)c([N+](=O)[O-])c(NCCO)n1
 : -1	1.5	14	4	-16	4	6184
37. CCc1cccc(NC(=O)COC(=O)c2cc(=O)c3ccccc3o2)c1
 : nt	2.0	1	-5	-7	7	nt
38. COc1ccc(/C=C2\C(=O)NC(=O)N(CCC3=CCCCC3)C2=O)c(OC)c1
 : -2	-3.4	6	11	-4	-7	2817
39. O=C(O)C(Cc1ccccc1)N1C(=O)CCC1=O (stereo not given)
 : 2	0.9	11	7	-1	5	4275
40. C#CCN(C)Cc1ccccc1
 : -4	5.6	9	1	-19	2	5577
41. CCC(C)NC(=O)c1cn(-c2cccc(OC)c2)c(=O)c2ccccc12 (stereo not given)
 : -9	2.3	2	7	-22	6	3624
42. O=C(CN1CCN(Cc2ccccc2Cl)CC1)N/N=C/C=C/c1ccccc1[N+](=O)[O-]
 : -16	nt	nt	nt	-7	nt	2098
43. CCOC(=O)Cc1csc(NC(=O)COc2ccc3ccccc3c2)n1
 : 1	-6.5	12	-2	-10	-4	nt
44. Cc1ccccc1C(=O)N1CCCN(C(=O)c2ccccc2C)CC1
 : 3	0.4	-2	-2	-10	-2	4261
45. COc1ccc(NC(=O)CCCn2c(=O)c3sccc3n(Cc3ccccc3C)c2=O)cc1
 : -10	2.8	6	1	-10	2	7853
46. C/C(=N/NC(=O)c1cnccn1)c1cccs1
 : -2	nt	nt	nt	-20	nt	2124
47. CCOc1cccc(C2/C(=C(\O)c3ccc4c(c3)OCCO4)C(=O)C(=O)N2Cc2ccncc2)c1 (stereo not given)
 : 3	1.6	-3	-2	-8	1	4472
48. CCc1ccc(C(C(=O)NC2CCCC2)N(Cc2cccnc2)C(=O)c2csnn2)cc1 (stereo not given)
 : -11	2.9	1	0	-22	6	3139
49. CCC(C)NC(=O)CCC(=O)OC1O[C@H]2OC3(C)CC[C@H]4[C@H](C)CCC(C1C)C24OO3 (stereo not given in full)
 : 7	3.6	74*	8.5*	-21	-2	3505
50. O=C(NCc1cccnc1)C1CC(c2ccc(Cl)c(Cl)c2)=NO1 (stereo not given)
 : -2	5.3	4	6	-26	-1	3792
51. CN(C(=O)c1ccncc1)C1CCCN(Cc2ccccc2F)C1 (stereo not given)
 : -1	3.3	-1	4	-12	12	3288
52. COc1cc(NC(=O)CSc2nnc(C)s2)cc(OC)c1OC
 : -5	5.3	5	4	-15	-3	2694
53. O=C(NCc1n[nH]c(=S)n1Cc1ccccc1)c1ccc(Cl)cc1Cl
 : -7	-3.3	14	5	-7	12	4431
54. COc1ccc(S(=O)(=O)N(C)C)cc1NC(=O)CSC(C)C(=O)Nc1cc(C)on1 (stereo not given)
 : nt	3.1	-9	-8	-5	1	4014
55. CCN1C(=O)CC(N2CCN(CC(=O)NC(C)C)CC2)C1=O (stereo not given)
 : 2	-0.7	-2	13	-1	-3	10875
56. COc1cc(Nc2ncnc(N)n2)cc(OC)c1
 : -10	4.2	5	4	-26	5	4180
57. CC1CC(C)(C)NC(=S)N1CCC(=O)NCc1ccc(Cl)cc1 (stereo not given)
 : 0	6.0	10	3	-17	3	4362
58. Cc1cccn2c(=O)c3cc(C(=O)NCC4CCCO4)c(=N)n(Cc4cccnc4)c3nc12 (stereo not given)
 : nt	8.6	-3	4	10	1	4542
59. CCOc1ccc(C(O)(c2ccccc2OC)C(CN2CCCC2)c2ccccc2)cc1 (stereo not given)
 : 6	3.0	16	3	-11	-6	3904
60. O=S(=O)(Nc1ccc2c(c1)OCO2)c1ccc(Br)s1
 : -5	4.2	10	12	-41	-13	9417

# Going on with the list:
# The line under a structure holds: BJeLR lethal	Sa RN4220 lethal	Mtb hypoxia rep	Mtb hypoxia rep growth	PrP 5UTR inh	Sa ugtP lethal	Autofluor counter
61. CSc1sc(C#N)c2c1/C(=N\O)CCC2
 : -3	nt	nt	nt	-25	nt	5965
62. Cc1cc(C)n(C(=O)c2ccc(NC(=O)CC(C)C)cc2)n1
 : 7	2.0	4	6	-19	6	12660
63. COc1ccc(/C=C2\C(=O)NC(=O)N(Cc3ccccc3)C2=O)c(OC)c1OC
 : 19	0.1	-5	1	-25	2	2540
64. COc1ccccc1CCNC(=O)/C(=C/c1cccnc1)NC(=O)c1ccccc1
 : -5	2.2	-6	5	0	2	2086
65. CN(CCCC1CCCC1)C(=O)CC1C(=O)NCCN1Cc1ccc(F)cc1 (stereo not given)
 : 5	2.2	8	-5	-10	9	5839
66. Cc1nnc(SCC2=C(C(=O)O)N3C(=O)C(NC(=O)COc4ccccc4)C3SC2)s1 (stereo not given)
 : nt	100*	nt	nt	-27	101*	5301
67. CCOCCc1c(O)[nH]c(=S)[nH]c1=O
 : -5	-0.6	1	16	-11	4	2339
68. CCN1CCCC1CNC(=O)c1cc2c(OC)c(OC)c(OC)cc2[nH]1 (stereo not given)
 : 6	2.6	10	5	-13	3	4265
69. CC1CN(C(=O)Nc2ccc3c(c2)OCCO3)CC(C)O1 (stereo not given)
 : -2	4.3	5	8	-6	5	3197
70. CC1(C)C(C=C(Cl)Cl)C1C(=O)Nc1ccc(S(=O)(=O)Nc2ncccn2)cc1 (stereo not given)
 : -6	5.6	8	5	-14	30	5430
71. O=[N+]([O-])C(=C1SCCS1)C(=C(Cl)Cl)N1CCCCC1
 : -1	13	7	9	0	61	2195
72. COc1cccc(C(=O)CSc2nnc(CNS(=O)(=O)c3ccc(C)cc3)n2C)c1
 : -4	0.2	nt	nt	-1	3	2832
73. O=C(NN=Cc1ccc(O)cc1)NC12CC3CC(CC(C3)C1)C2
 : nt	11	4	-4	nt	-2	nt
74. CC(Oc1cccc(Cl)c1)C(=O)Nc1ccncc1 (stereo not given)
 : 7	-0.8	-4	-2	-15	-12	2054
75. O=C(CSc1nnnn1-c1ccccc1)N1CCNC1=O
 : -7	-0.5	2	-3	-8	-3	4832
76. O=c1c2sccc2nc(SCc2cc(=O)n3ccccc3n2)n1-c1ccc(Br)cc1
 : 7	3.2	-4	0	-19	5	11060
77. CCOc1cc(CN2CCN(C(=O)CC(C)C)CC2)ccc1OC
 : -7	-1.5	nt	nt	-12	1	3760
78. COc1ccccc1OCc1ccc(C(=O)N2CCCCC2)o1
 : 12	5.0	13	-1	-15	2	5360
79. CCOc1ccc(NC(=O)C2CC(=O)NC(N3CCc4ccccc43)=N2)cc1 (stereo not given)
 : 8	5.1	9	12	-24	-6	10170
80. CN(C)c1ccc(C(=O)N2CCN(c3cc(C(F)(F)F)nc4ccccc34)CC2)cc1
 : 1	1.1	-6	4	-12	-10	6133
81. c1ccc(CCNc2c3c(nc4ncnn24)CCC3)cc1
 : 1	3.2	7	0	-22	12	22631*
82. Cc1nc(NC(=O)c2ccccc2)sc1-c1csc(NCCc2ccccc2)n1
 : -4	-0.5	-7	2	-2	-26	25254*
83. Cc1ccc(CN(CC(=O)NC2CCCC2)C(=O)CSc2nnc(COc3ccccc3)o2)cc1
 : 4	1.1	6	1	-29	-4	9169
84. O=C(Nc1ccccc1C(=O)Nc1nncs1)c1ccccc1
 : 2	34	5	14	-6	26	3230
85. CCOC(=O)CSC1=N/C(=C/c2ccc(-n3cncn3)cc2)C(=O)N1C(C)=O
 : 4	-0.2	0	3	-15	3	3160

# Structures listed so far that contain a furan ring, fused or not:
# The line under a structure holds: BJeLR lethal	Sa RN4220 lethal	Mtb hypoxia rep	Mtb hypoxia rep growth	PrP 5UTR inh	Sa ugtP lethal	Autofluor counter
4. Cc1ccccc1NS(=O)(=O)c1ccc(C(=O)NCC(c2ccco2)N(C)C)cc1 (stereo not given)
 : 9	nt	nt	nt	-20	nt	?
78. COc1ccccc1OCc1ccc(C(=O)N2CCCCC2)o1
 : 12	5.0	13	-1	-15	2	5360
